Bfl-1 A1 inh: inhibitors of the anti-apoptotic protein A1, read as caspase activation | caspase activation, % (test concentration not listed) | hit rate 0.066% among 330,000 | AID 2462 | MEF A1-2A-BIM cells, Caspase-Glo 3/7 luminescence, 3 h; percent of clofoctol response, vehicle zero;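 active = over half of replicate activation scores above 10%, or exactly half above 10 with the replicate mean above 10; inconclusive = replicate mean below 10 yet half the replicates above 10; inactive = over half of replicates below 10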;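 note: wells of about 30 µL received 50 nL stock; many hits fall short of the cut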
Beta apoptosis: blocks beta cell apoptosis. INS-1E cytokine-induced death, ATP luminescence, 48 h; percent of positive-control rescue, neutral wells zero. protection from apoptosis, % (test concentration not listed). hit rate 0.8% among 300,000. AID 435005;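 active = all replicates at 75% or more, or half of them and the mean; inconclusive = half reach 75% but not the mean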;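 note: 0% = cytokine-treated negative control wells and 100% = positive control rescue; higher means more ATP so stronger rescue from cytokine killing; wells of about 40 µL received 100 nL stock; the first replicate is given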
Vif A3G: inhibitors of Vif binding to APOBEC3G peptide, primary screen, biochemical, TR-FRET, GST-Vif 1-94, biotin-A3G peptide, dose response retest (AID 1117319); TR-FRET GST-Vif / biotin-A3G peptide binding; higher % means a stronger effect; test concentration not given here; strong numbers were not always called active; one-dose inhibition, %; IC50 in µM for titrated hits; hit rate 0.57% among 260,000;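 active = above the screen mean plus three standard deviations and confirmed in dose response; inconclusive = results disagree or hit not tested in dose response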;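 note: Vif residues 1-94 fused to GST binding biotinylated APOBEC3G peptide 110-148; 0% = full assay without inhibitor and 100% = GST in place of GST-Vif; retest series ran down from 100 µM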
The depositor's hits bear a star; ? = inconclusive; & = joins results of further samples.

Every second line gives: Bfl-1 A1 inh, Beta apoptosis, Vif A3G
1	Cc1c(N2C(=O)/C(=C\c3ccc(N(C)C)cc3)N(C)C2=S)c(=O)n(-c2ccccc2)n1C
  -0.6, 2, 8%
2	O=[N+]([O-])c1cc(CN2CCCC2)c2cccnc2c1O
  0.1, 5, 2.5µM*
3	O=C1CC(N2CCN(c3ccc(O)cc3)CC2)C(=O)N1Cc1cccs1 (configuration not stated)
  0.9, 4, ?
4	O=S(=O)(c1ccc(F)cc1)N1CCC(N2CCCC2)CC1
  -0.8, -1, -1%
5	CC1CCN(CCNC(=O)CCS(=O)(=O)c2ccc(Br)cc2)CC1
  -0.9, 0, 21%
6	O=C(Cn1nnc2c(cnn2-c2ccc(F)cc2)c1=O)c1ccccc1F
  -2.5, 6, -8%
7	COc1ccc(NC(=O)C(c2ccc(C)cc2)N(C)C(=O)c2cnccn2)cc1 (configuration not stated)
  -0.3, -2, -6%
8	C=C(C)COc1ccc(-c2nc(N)ncc2Oc2ccccc2OC)c(O)c1
  -1.3, -4, -53%
9	CCCCc1c(C)c2ccc(OCC(C)=O)cc2oc1=O
  -1.5, 2, 32%
10	CCN1CCN(C2=C(Cl)C(=O)N(Cc3ccccc3)C2=O)CC1
  0.1, -2, -1%
11	Clc1ccccc1-c1nnc2sc(C3COc4ccccc4O3)nn12 (configuration not stated)
  0.4, 1, 2%&-1%
12	CCOC(=O)c1ccc(NC(=O)CSc2ncccn2)cc1
  0.5, -4, 1%
13	CCOc1ccc(C(C)=O)cc1COc1ccc(-n2cnnn2)cc1
  0.1, -5, 5%
14	Cc1nc(NCCNC(=O)c2ccco2)c2c(C)c(C)sc2n1
  0.1, 3, -1%
15	Cc1ccc(-c2noc(CCC(=O)NCCc3ccccc3Cl)n2)cc1
  -0.3, 3, 4%
16	CN(C)C(=O)NC1C=CS(=O)(=O)C1 (configuration not stated)
  -1.2, -2, -2%
17	Cn1cnnc1SCc1ccc(C(=O)N/N=C(\CCC(=O)O)c2ccc(C(C)(C)C)cc2)cc1
  -1.1, 1, 1%
18	O=C(C1CC1)N1CCc2cc(Br)cc(S(=O)(=O)NCc3ccco3)c21
  -0.2, -1, 20%
19	C=CCN(C(=O)Nc1ccc(F)cc1)C1CC(=O)N(c2ccc(OC)cc2)C1=O (configuration not stated)
  0.1, 2, ?
20	CCCNC(=O)NC(=O)CSc1ccc2c(c1)OCCO2
  0.0, -3, 3%
21	COc1nc2c(C)cccc2cc1-c1noc(-c2ccco2)n1
  1.3, -4, 7%
22	Cc1ccc(C)c(C(=O)n2cnnc2N)c1
  0.2, -2, -1%
23	COc1cccc(/C=N/Nc2snc(SC)c2C#N)c1
  0.2, 34, -8%
24	CCCC(C(=O)NCc1ccccc1)N(C(=O)Cn1nnc(-c2cccs2)n1)c1ccc2c(c1)OCCO2 (configuration not stated)
  -1.0, -4, ?
25	COc1ccccc1N1CCN(C(c2ccccc2Cl)c2nnnn2C(C)(C)C)CC1 (configuration not stated)
  -1.0, -3, 2%
26	CCCNS(=O)(=O)c1ccc(NC(=O)c2ccccn2)cc1
  -0.4, 8, 66%
27	C=CCN=C(NC#N)SCc1ccccc1Cl
  0.0, -2, 10%
28	COc1ccc(C2=CC(c3c(C)nn(-c4ccccc4)c3Cl)n3nnnc3N2)cc1OC (configuration not stated)
  -6.5, 4, 5%
29	CCN(CC)CCNC(=O)C1CCC(=O)N(c2ccc(OC)cc2)C1c1ccc(F)cc1 (configuration not stated)
  0.0, -1, 0%
30	C[C@@H]1NC(=O)c2cc([N+](=O)[O-])cc(I)c2NCCCC[C@@H](C(N)=O)NC(=O)[C@H](CCC(=O)O)NC1=O
  1.8, -1, 18%

Ordered by count of non-hydrogen atoms (ascending): part of the list above.
Every second line gives: Bfl-1 A1 inh, Beta apoptosis, Vif A3G
16	CN(C)C(=O)NC1C=CS(=O)(=O)C1 (configuration not stated)
  -1.2, -2, -2%
22	Cc1ccc(C)c(C(=O)n2cnnc2N)c1
  0.2, -2, -1%
27	C=CCN=C(NC#N)SCc1ccccc1Cl
  0.0, -2, 10%
2	O=[N+]([O-])c1cc(CN2CCCC2)c2cccnc2c1O
  0.1, 5, 2.5µM*
4	O=S(=O)(c1ccc(F)cc1)N1CCC(N2CCCC2)CC1
  -0.8, -1, -1%
12	CCOC(=O)c1ccc(NC(=O)CSc2ncccn2)cc1
  0.5, -4, 1%
21	COc1nc2c(C)cccc2cc1-c1noc(-c2ccco2)n1
  1.3, -4, 7%
5	CC1CCN(CCNC(=O)CCS(=O)(=O)c2ccc(Br)cc2)CC1
  -0.9, 0, 21%
18	O=C(C1CC1)N1CCc2cc(Br)cc(S(=O)(=O)NCc3ccco3)c21
  -0.2, -1, 20%
3	O=C1CC(N2CCN(c3ccc(O)cc3)CC2)C(=O)N1Cc1cccs1 (configuration not stated)
  0.9, 4, ?
8	C=C(C)COc1ccc(-c2nc(N)ncc2Oc2ccccc2OC)c(O)c1
  -1.3, -4, -53%
7	COc1ccc(NC(=O)C(c2ccc(C)cc2)N(C)C(=O)c2cnccn2)cc1 (configuration not stated)
  -0.3, -2, -6%
25	COc1ccccc1N1CCN(C(c2ccccc2Cl)c2nnnn2C(C)(C)C)CC1 (configuration not stated)
  -1.0, -3, 2%
28	COc1ccc(C2=CC(c3c(C)nn(-c4ccccc4)c3Cl)n3nnnc3N2)cc1OC (configuration not stated)
  -6.5, 4, 5%
17	Cn1cnnc1SCc1ccc(C(=O)N/N=C(\CCC(=O)O)c2ccc(C(C)(C)C)cc2)cc1
  -1.1, 1, 1%
30	C[C@@H]1NC(=O)c2cc([N+](=O)[O-])cc(I)c2NCCCC[C@@H](C(N)=O)NC(=O)[C@H](CCC(=O)O)NC1=O
  1.8, -1, 18%

New compounds follow
Every second line gives: Bfl-1 A1 inh, Beta apoptosis, Vif A3G
31	Cn1c(SCC(=O)NC2CC2)nnc1-c1ccco1
  -0.6, -1, 2%
32	O=C(Nc1ccccc1N1CCN(C(=O)c2ccccc2)CC1)c1cc2ccccc2o1
  -0.4, 43, -13%
33	O=C(c1ccc(Cl)c([N+](=O)[O-])c1)N(Cc1ccc(Cl)cc1)C1CCS(=O)(=O)C1 (configuration not stated)
  -0.1, -3, -11%
34	CSc1nsc(/C=C/Nc2cccc(Cl)c2)c1C#N
  1.0, 2, 14%
35	O=C(Cn1cnc2ccccc2c1=O)NCC(=O)N1CCN(Cc2ccc3c(c2)OCO3)CC1
  0.0, -1, ?
36	Cc1cc(C(=O)N/N=C/c2cc(Br)ccc2OC(=O)c2ccccc2)n[nH]1
  0.8, 100*, 7%
37	COc1ccc(NC(=O)Nc2cccc(C(=O)N3CCOCC3)c2)cc1OC
  0.2, 0, 1%
38	COc1ccc(C(c2c(C)[nH]n(C(N)=S)c2=O)C(C#N)C#N)cc1 (configuration not stated)
  0.1, -1, 7%
39	CCOC(=O)C1=C(SCC)c2cc3c(n2C1=O)CCCC3
  0.6, -13, ?
40	CCOC(=O)c1[nH]c2ccc(F)cc2c1NC(=O)CCN1CCSCC1
  0.9, -9, 24%
41	C/C(CC(=O)NC1CCCC1)=N\NC(=O)c1ccc([N+](=O)[O-])c(Cl)c1
  0.1, -2, -11%
42	COCC(C)n1c(C)cc(C(=O)COC(=O)c2ccc3ncsc3c2)c1C (configuration not stated)
  -0.1, -6, -6%
43	COc1cc(C2C3=C(CCCC3=O)Nc3[nH]n(-c4ccccc4)c(=O)c32)ccc1O (configuration not stated)
  0.4, 6, 8%
44	COc1ccc(CNC(=O)CCCn2c(SCC#N)nc3cc4c(cc3c2=O)OCO4)cc1
  -0.3, -2, -4%
45	CCN1CCN(CC(=O)c2c(C)n(C)c3ccc(OC)cc23)CC1
  -0.1, -2, -2%
46	CC(C)(C)c1ccc(C(=O)CCCSC2=C(C#N)C(c3ccco3)C3=C(CCCC3=O)N2)cc1 (configuration not stated)
  -0.9, 36, 29%
47	COCCn1c(=NC(=O)CSCC(=O)NC2CCCCC2)sc2cc(OC)ccc21
  -0.3, -1, -19%
48	COc1ccccc1N1CCN(Cc2cccc(OC)c2OC)CC1
  0.0, -4, -5%
49	CC(C)(C)C1=Nn2c(nnc2-c2n[nH]c3c2CCC3)SC1
  0.1, -6, 2%
50	COc1cccc(CNC(=O)C2CCCN(c3nn4c(=O)cc(C)nc4s3)C2)c1 (configuration not stated)
  0.5, 2, -5%
51	c1cncc(C(c2nnnn2C2CCCCC2)N2CCN3CCCC3C2)c1 (configuration not stated)
  -1.4, -1, 8%
52	CCCCOc1cccc(C2(C(=O)O)CCCC2)c1
  0.4, -6, 16%
53	CC(=O)Nc1nc(C)c(-c2csc(Nc3ccc(O)cc3)n2)s1
  -0.9, 23, 0%
54	CCOC(=O)CC(=O)CSc1nnc2sc3ccccc3n12
  0.0, -8, 14%
55	CC1(C)CC(=O)C(Sc2nnc(-c3ccc(NS(C)(=O)=O)cc3)n2Cc2ccco2)C(=O)C1
  -1.0, -9, 23%
56	CC[C@H](C)[C@@H](NC(=O)O[C@@H]1C(=O)c2cc(Br)ccc2O[C@H]1c1cccc(OC)c1)C(=O)OC
  -0.2, 1, 11%
57	CCC(=O)N1CCc2cc(Br)cc(S(=O)(=O)NCCN3CCCCC3CC)c21 (configuration not stated)
  -0.5, -5, -5%
58	CC1CN(C(=O)c2scc3c2OCCO3)CC(C)O1 (configuration not stated)
  0.0, 1, 6%
59	Cc1ccnc(N=Cc2c(O)ccc3oc4c(c23)CCCC4)c1
  0.1, -2, ?
60	CC1(c2ccc3ccccc3c2)NC(=O)N(CC(=O)N2CCN(Cc3ccccc3)CC2)C1=O (configuration not stated)
  -0.6, 48, -6%
61	Cc1nnc(NC(=O)c2ccc3ccccc3c2)o1
  -0.1, -6, 4%
62	CCOC(=O)CNC(=O)C1c2cc(OC)c(OC)cc2C(=O)N(C)C1c1ccccc1F (configuration not stated)
  0.0, -4, ?
63	O=C(COc1ccc2ccccc2c1)Nc1nc2ccccc2[nH]1
  -0.2, -5, -1%
64	CNc1ccccc1-c1nc2ccccc2n(C)c1=O
  2.6, -6, -3%
65	COC(=O)c1cc2c(ccn2-c2ccc(F)cc2)n1CC(=O)N1CCN(C(=O)c2ccco2)CC1
  -0.5, -12, -8%
66	O=C(NCC(=O)N(CCc1ccccc1)C(C(=O)NC1CCCC1)c1cccnc1)c1ccco1 (configuration not stated)
  -0.8, -3, 4%
67	CCOc1ccc(-n2c(SCC(=O)Nc3ccc4c(c3)OCCO4)nc3c(c2=O)SCC3)cc1
  0.1, -3, 6%
68	O=C(O)C1C2C=CC(O2)C1C(=O)Nc1ccc(S(=O)(=O)Nc2ccccc2)cc1 (configuration not stated)
  1.0, -3, 6%
69	O=C1CSC(c2ccccn2)N1Cc1cn2ccccc2n1 (configuration not stated)
  0.6, 1, 2%
70	CCOC(=O)N1CCN(C(=O)CSCC(=O)Nc2nc(-c3ccc4c(c3)OCO4)cs2)CC1
  -1.3, -15, 20%
71	Cn1cccc1/C=C1\SC(=S)N(NC(=O)c2ccccc2Cl)C1=O
  0.6, 3, 13%
72	N#Cc1nc(COc2ccccc2F)oc1N1CCCCCC1
  0.3, -6, 9%
73	COc1ccc(CC(NC(C)=O)C(=O)NC2CCN(c3c4c(nc5ncnn35)CCC4)CC2)cc1OC (configuration not stated)
  0.1, -1, 15%
74	Nc1ccc(N2CCOCC2)c(Cl)c1
  0.7, 0, 22%
75	CCC(NC(=O)Nc1ccc(O)cc1)(C(F)(F)F)C(F)(F)F
  1.0, 3, ?
76	Cc1c(Cl)cnc(NC(=O)CSc2nnc(C)n2Cc2ccccc2)c1Cl
  0.4, -3, -1%
77	Cc1ccc(-c2nnc(SCC(=O)Nc3ccc4c(c3)OCCO4)n2N)cc1
  -0.1, -4, -2%
78	CC(=O)N1CCc2cc(S(=O)(=O)NCCC(=O)N3CCN(Cc4ccccc4)CC3)ccc21
  1.2, 5, 5%
79	COc1ccc(OCC(O)Cn2c(=N)n(CCN3CCCCC3)c3ccccc32)cc1 (configuration not stated)
  -0.1, 2, -6%
80	CCOc1ccc(N(CC(=O)O)S(=O)(=O)c2ccc(F)cc2)cc1
  0.4, 2, 6%
81	Cc1nn(C)c(C)c1N1C(=O)c2cccc3c(N)ccc(c23)C1=O
  ?, 2, -9%
82	CCOC(=O)c1nnn(-c2ccc(OC)cc2)c1N
  -0.4, 0, 29%
83	O=C(O)C1CC=CCC1C(=O)N1CCN(c2nc(-c3ccccc3Cl)c3cc(Br)ccc3n2)CC1 (configuration not stated)
  -0.4, -5, -81%
84	CCN(CC(=O)Nc1cc(Cl)ccc1C)C(=O)c1ccc(N2CCCC2=O)cc1
  0.0, -3, -9%
85	O=C(/C=C\Nc1ccccn1)c1ccc(Cl)cc1
  -7.1, 6, ?
86	[N-]=[N+]=CC(=O)c1ccnc(C(=O)C=[N+]=[N-])c1
  0.1, -1, -1%
87	CCOC(=O)c1c(NC(=O)Cn2nnc(-c3ccc(Cl)cc3)n2)sc(CC)c1C
  0.5, 0, -1%
88	CCOC(=O)c1cc2oc(C(c3nnnn3C3CCCCC3)N3CCOCC3)cc2[nH]1 (configuration not stated)
  -0.1, 4, 14%
89	COc1cccc(NC(=O)c2ccccc2-c2nc(-c3ccc(Cl)cc3)no2)c1
  1.5, 0, 0%
90	COc1ccc(-c2nc(N)nc(C)c2Oc2ccccc2Br)c(O)c1
  0.3, -11, ?

High-throughput results (PubChem)

A portion of the library, so the mix of outcomes need not match the whole.
